Assay outcomes as filed in PubChem.
miR-21 reporter – miR-21 reporter, rising signal | Potency, µM (top dose mostly 38.3 µM), inactives show at the top dose reporter change, positive = more light | HeLa miR-21 FLuc reporter, luciferase, 48 h | 340,000 tested, under 10 active; active = well fitted rising curve with a large enough effect; inconclusive = small, poorly fitted or top-dose-only effect; inactive = no such curve, though single readings can be large or run the other way;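 also: % of control where 0% means no effect; miR-21 action dims this reporter so a rising signal means less miR-21 action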
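HeLa cells endogenously expressing miR-21, stably carrying CMV-driven firefly luciferase with a downstream miR-21 binding site, 2000 cells/well. Titrations up to approximately 40 uM, 48 hours; luciferase luminescence read.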
* marks the source's active call; other numbers are inactive results; u = inconclusive.

SMILES	miR-21 reporter
CSc1nc2sc3c(c2c(=O)n1-c1ccc(C)cc1)CCCC3	-0.9%
CC1CCN(Cc2c(O)ccc3c(=O)c(-c4cccc(Cl)c4)c(C(F)(F)F)oc23)CC1	0.3%
COc1ccc(Cl)cc1NC(=O)c1cc(=O)c2cc(C)cc(C)c2o1	-0.9%
Cc1cccc(NC(c2cccc(Cl)c2)c2ccc3cccnc3c2O)n1 (stereo not drawn)	15.7%
Cc1cccc(-n2ncc3c(NNC(=O)c4ccccc4Cl)ncnc32)c1	0.5%
CC(C)c1ccc(CNC(=O)c2ccc(N3CCCC3)c(NC(=O)NCc3ccc(F)cc3)c2)cc1	16.9%
Cc1ccc(S(=O)(=O)NCC2CCC(C(=O)NCCc3ccccc3)CC2)cc1 (stereo not drawn)	-12.7%
O=C(NC1CCCCCC1)C1c2ccccc2C(=O)N1Cc1ccccc1Cl (stereo not drawn)	-2.6%
CCOC(=O)CC(NC(=O)Cn1nnc(-c2ccc(C(F)(F)F)cc2)n1)c1ccccc1Cl (stereo not drawn)	-3.1%
Cc1ccc(Cn2c(C(=O)O)c(CNCc3ccc(OC(C)C)cc3)c3ccc(C)cc32)cc1	u
CCOc1ccc(N2C(=O)c3n[nH]c(-c4cccs4)c3C2c2cccc(F)c2)cc1 (stereo not drawn)	u
O=C(NCCc1csc2nc(-c3ccccc3F)nn12)C(=O)Nc1cc(F)ccc1F	-1.5%
Cc1cccc(CCn2c(=O)c3ccccc3n(CC(=O)Nc3ccccc3F)c2=O)c1	-5.0%
Cc1ccccc1C(=O)Nc1ccc(NC(=O)c2cccs2)cc1	-23.7%
O=C(Cn1c(=O)nc(-c2ccccc2)c2ccccc21)NCCCc1ccccc1	-2.3%

Following part:
SMILES	miR-21 reporter
CCOC(=O)c1c(NC(=O)CSc2cn(CCNC(=O)c3ccc(OC)cc3)c3ccccc23)sc2c1CCC2	13.1%
Cc1ccc(NC(=O)CSc2nnc(-c3cc4occc4n3C)n2-c2ccccc2C)cc1F	11.4%
COc1ccccc1N1CCN(C(=O)c2cc(S(=O)(=O)N3CCC(C)CC3)cn2C)CC1	12.0%
O=C(CCCc1nc(-c2ccc(Cl)cc2)no1)NCc1ccco1	28.0%
CCOC(=O)c1cccc(NC(=O)CC(c2cc(OC)c(OC)c(OC)c2)N2Cc3ccccc3C2=O)c1 (stereo not drawn)	-0.7%
Cc1ccc(NC(=O)Cn2nc(-c3ccc(F)cc3)c3cnc4ccc(C)cc4c32)cc1	-2.1%
O=C(c1ccc2c(c1)N(Cc1ccc(Cl)cc1)C(=O)c1ccccc1S2(=O)=O)N1CCCC1	17.0%
CCn1nnc2cc(C(=O)Nc3cccc(Cl)c3)ccc21	-49.1%
CCOc1ccc(NC(=O)CCc2c(C)nc3nc(C)nn3c2C)cc1	-1.0%
Cc1ccc(C)c(NC(=O)Cn2c(=O)n(Cc3cccs3)c(=O)c3cccnc32)c1	-6.9%
COc1cc(NC(=O)CC2C(=O)OCCN2Cc2ccccc2)cc(OC)c1 (stereo not drawn)	-1.6%
CNC(=O)c1ccc(Nc2nnc(-c3ccc(C)c(S(=O)(=O)N4CCCCC4)c3)c3ccccc23)cc1	4.4%
CCc1ccc(C2c3c(oc4ccc(C)cc4c3=O)C(=O)N2c2nc(C)c(C)s2)cc1 (stereo not drawn)	-2.3%
O=C(NCc1ccc(F)cc1)c1ccc(CSc2nc3ccncc3n2Cc2ccc(F)cc2)cc1	14.1%
CC(=O)c1cccc(-n2c(=O)c3c4c(sc3n(CC(=O)c3ccc(Cl)cc3)c2=O)CN(C(C)=O)CC4)c1	1.9%

Ordered by count of non-hydrogen atoms (rising): 3 of the compounds above
SMILES	miR-21 reporter
Cc1ccc(NC(=O)CSc2nnc(-c3cc4occc4n3C)n2-c2ccccc2C)cc1F	11.4%
CNC(=O)c1ccc(Nc2nnc(-c3ccc(C)c(S(=O)(=O)N4CCCCC4)c3)c3ccccc23)cc1	4.4%
CCOC(=O)c1cccc(NC(=O)CC(c2cc(OC)c(OC)c(OC)c2)N2Cc3ccccc3C2=O)c1 (stereo not drawn)	-0.7%

(more compounds)
SMILES	miR-21 reporter
COC(=O)c1cccc(Nc2c(-c3ccc(SC)cc3)nc3nc[nH]n23)c1	-23.6%
CCc1nn2c(=O)cc(COC(=O)c3ccccc3NC(=O)c3cccs3)nc2s1	0.3%
COC(=O)c1ccc(NC(=O)Cn2ccn3nc(-c4ccc(OC)cc4)cc3c2=O)cc1	-20.6%
COCCCNC(=O)Cn1c(=O)n(-c2ccccc2)c(=O)c2c1c1cc(OC)ccc1n2C	1.6%
CCCC1=Nc2cc(C(=O)NC(C)c3ccccc3)ccc2Sc2ccc(C)cc21 (stereo not drawn)	25.2%
CC(C)CC(=O)n1nc(-c2ccco2)nc1NCc1ccc(Cl)cc1	-39.8%
CN(C)c1ccc(-c2nc(-c3ccncc3)no2)cc1[N+](=O)[O-]	-1.0%
CC(=O)c1cccc(NC(=O)C2=CC(c3ccc(F)cc3)=NS(=O)(=O)N2C)c1	-4.2%
Cc1cc(-c2ccc(C)c(S(=O)(=O)N(Cc3cccs3)C(C)C)c2)on1	23.8%
CCCCCCOc1ccc(/C=C/C(=O)Nc2sc3c(c2C(=O)OC)CCC3)cc1OC	-4.4%
COCc1cc(C)nc2sc(C(=O)Nc3ccc(C(C)=O)cc3)c(N)c12	-55.7%
CCOc1ccc(CC(=O)NC2CC(=O)N(c3ccc4c(c3)OCCO4)C2)cc1 (stereo not drawn)	-1.3%
CC(=O)c1ccc(NC(=O)Cn2cc3c(n2)CCCC3)cc1	0.8%
Cc1ccc(CNc2nnc(C)c3nnn(Cc4ccc(F)cc4)c23)cc1	-1.1%
CC1=NN(c2ccc(C(=O)O)cc2)C(=O)/C1=C/c1ccc(-c2ccccc2F)o1	-9.0%

Other results:
SMILES	miR-21 reporter
COc1ccc(C(CC(=O)Nc2cc(OC)c(OC)c(OC)c2)N2Cc3ccccc3C2=O)cc1 (stereo not drawn)	-2.8%
COc1cccc(N2CCN(S(=O)(=O)c3ccc4[nH]c5c(c4c3)CCCC5)CC2)c1	4.7%
Cc1nc2c(C(=O)NCCC(C)C)cnn2c(C)c1Cc1c(F)cccc1Cl	1.7%
CC(=O)c1ccc(NC(=O)CSc2cn(CC(=O)N(C(C)C)C(C)C)c3ccccc23)cc1	4.0%
Cc1cc(C)c(NC(=O)c2cc(S(=O)(=O)N3CCN(c4ccccc4F)CC3)ccc2F)c(C)c1	9.7%
O=C(NCc1ccc2c(c1)CCN2C(=O)c1ccc(F)cc1)c1ccco1	19.4%
CCc1ccccc1Nc1ncnc2c1cnn2-c1ccc(Cl)cc1	-60.2%
COc1ccc2c(Sc3ccccc3)c(C(=O)NCCCN3CCCCC3)[nH]c2c1	18.8%
O=C(NCc1ccccc1F)C(=O)NCC(c1ccco1)S(=O)(=O)c1ccccc1 (stereo not drawn)	14.9%
Cc1ccc(-c2nc(C)c(CCNC(=O)c3cccs3)s2)cc1	2.7%
COC(=O)c1ccccc1NC(=O)c1nc(SCc2ccccc2C)ncc1Cl	4.9%
CCCCC(CC)CNC(=O)c1ccc2c(=O)n(CCOC)c(=O)[nH]c2c1 (stereo not drawn)	u
O=C(Nc1ccccc1C(=O)OCc1cc(=O)n2c3c(sc2n1)CCCC3)c1ccccc1	-5.1%
COc1ccc(C2NC(=O)N(C)C3=C2C(=O)N(c2ccc(F)cc2)C3)cc1 (stereo not drawn)	-7.9%
COc1cc(-c2nnc(SCC(=O)Nc3cccc(C#N)c3)o2)cc(OC)c1OC	5.4%

Next part.
SMILES	miR-21 reporter
Cc1nn(C)c2c1c(-c1ccccc1)cc(=O)n2C(C)C(=O)NCc1ccc(F)cc1 (stereo not drawn)	-4.1%
O=C(CSc1nc2ccsc2c(=O)n1Cc1ccccc1F)NCc1ccccc1Cl	13.7%
CC(=O)N1CCc2cc(CNS(=O)(=O)c3ccc(Br)s3)ccc21	-21.8%
O=C(NCCO)C(=O)Nc1c2c(nn1-c1ccc(F)cc1)CSC2	-2.6%
O=C1CN(C(=O)Nc2ccccc2C(F)(F)F)C(c2ccccc2)c2c(sc3c2CCCC3)N1 (stereo not drawn)	2.0%
Cn1c(=O)cc(OCCCC(=O)Nc2ccc(F)cc2)c2ccccc21	-4.4%
Cc1ccc(O)c(NC(=O)c2nc3nc(C)cc(C(F)F)n3n2)c1	-12.2%
CCOC(=O)c1cc(-c2ccccc2)n(CCC(=O)NCc2ccccc2Cl)c1C	2.3%
CCn1c(CN2CCCCC2)nc2cc(NC(=O)COc3ccc(C(C)(C)C)cc3)ccc21	0.5%
COc1ccc(Cc2nc3ccc(C(=O)NCCc4ccccc4)cc3o2)cc1	-15.1%
Cc1nc(-c2ccc(S(=O)(=O)N(Cc3ccccc3)C(C)C)cc2)co1	-11.2%
O=C(Nc1ccc(F)cc1)C1CCN(c2nc3ccccc3nc2C(F)(F)F)CC1	16.6%
COc1ccccc1C(=O)Nc1ccc(C(=O)OCc2cc(=O)n3ccsc3n2)cc1	-1.1%
COCCCNC(=O)c1cc2cc(S(=O)(=O)N3CCCCC3)ccc2n1C	3.8%
COc1cccc(CNC(=O)C(Cc2ccccc2)NS(=O)(=O)c2ccc3c(c2)oc(=O)n3C)c1 (stereo not drawn)	-0.9%

(cont.)
SMILES	miR-21 reporter
O=C(CN1C(=O)CSc2ccc(S(=O)(=O)N3CCCC3)cc21)Nc1cccc(Cl)c1	1.6%
Cc1cccc(CNC(=O)c2ccc3c(c2)c(C)c(C)n3Cc2ccccc2)c1	-16.8%
Cc1ccc(-c2noc(-c3cccnc3NCc3ccc(Cl)cc3)n2)cc1	12.9%
CC1CCN(c2nc3ccc(C(=O)N4CCN(c5ccccc5)CC4)cc3s2)CC1	-46.6%
CCc1nc2nc(C)cc(Nc3ccc(OC)cc3OC)n2n1	1.0%
Cc1ccccc1NC(=O)c1c(C)oc2ccc(O)c(CN3CCC(C)CC3)c12	14.4%
Cc1c(C(=O)NCc2ccccc2Cl)sc2nc3n(c(=O)c12)CCC3	3.3%
Cc1cc(OCCn2cc(C(=O)c3cccs3)c3ccccc32)ccc1Cl	10.7%
CCOc1ccc(N(C)S(=O)(=O)c2cc(-c3cnc(C)o3)ccc2OC)cc1	11.6%
Cc1c(-c2nc(-c3ccc4c(c3)OCO4)no2)nnn1-c1cccc(C(F)(F)F)c1	2.8%
COc1cc2nc(SCc3ccc(F)cc3)n3nc(CCn4c(C)nc5ccccc54)nc3c2cc1OC	-8.5%
Cc1cccc(C(=O)N2CCc3cc(CNC(=O)CCc4ccccc4)ccc32)c1	11.9%
CCOc1ccc(CCNC(=O)Cn2c(-c3cccs3)cc3ccccc32)cc1OCC	-2.5%
Cc1nc2c(-c3ccc(F)cc3)c(C)nn2c(C)c1CCC(=O)NCc1ccc(Cl)cc1	1.9%
CCC(=O)N1CCc2cc(S(=O)(=O)NC(CC(C)C)C(=O)Nc3ccc(CC)cc3)ccc21 (stereo not drawn)	-13.9%

Molecules above that contain a furan ring, fused or not (7):
SMILES	miR-21 reporter
Cc1ccc(NC(=O)CSc2nnc(-c3cc4occc4n3C)n2-c2ccccc2C)cc1F	11.4%
O=C(CCCc1nc(-c2ccc(Cl)cc2)no1)NCc1ccco1	28.0%
CC(C)CC(=O)n1nc(-c2ccco2)nc1NCc1ccc(Cl)cc1	-39.8%
CC1=NN(c2ccc(C(=O)O)cc2)C(=O)/C1=C/c1ccc(-c2ccccc2F)o1	-9.0%
O=C(NCc1ccc2c(c1)CCN2C(=O)c1ccc(F)cc1)c1ccco1	19.4%
O=C(NCc1ccccc1F)C(=O)NCC(c1ccco1)S(=O)(=O)c1ccccc1 (stereo not drawn)	14.9%
Cc1ccccc1NC(=O)c1c(C)oc2ccc(O)c(CN3CCC(C)CC3)c12	14.4%

Additional compounds
SMILES	miR-21 reporter
Cc1ccc(CNC(=O)CCc2c(C)nc3c(c(C)nn3-c3ccccc3)c2C)cc1	-4.5%
Cc1ccc(C)c(N2CCN(C(=O)Cn3ncc4c(=O)oc5ccc(C)cc5c43)CC2)c1	0.8%
Cc1oc(-c2ccccc2F)nc1Cn1c(SCc2ccccc2F)nc2ccncc21	-10.1%
CCOc1ccc(-n2c(=O)c3c(C)c(C)sc3n(CC(=O)c3ccccc3)c2=O)cc1	-0.8%
COc1ccccc1N1CCN(c2ncnc3onc(-c4cccc(Cl)c4)c23)CC1	3.6%
COc1ccccc1NC(=O)CCNS(=O)(=O)c1ccc2c(c1)CCN2C(=O)C1CC1	0.1%
Cc1ccc(CNS(=O)(=O)c2cc(Br)cc3c2N(C(=O)C2CC2)CC3)cc1	1.6%
COCCNC(=O)c1cc2c(Cl)nc3ccc(C)cc3c2s1	-4.6%
CCOc1ccccc1CNCc1cccn1-c1nnc(N2CCN(c3ccccc3)CC2)s1	u
CCOc1ccc(Nc2ncnc3onc(-c4ccc(Cl)cc4)c23)cc1	-8.9%
CCCn1ccc2c(OCC(=O)NCc3ccccc3Cl)cccc2c1=O	u
Cc1c(CNC2CCCCCC2)c(C(=O)O)c(C)n1Cc1ccc(F)cc1	-3.5%
CCCc1nc2nc(C)c(NS(=O)(=O)c3ccc(C)c(C)c3)c(=O)n2[nH]1	2.9%
COc1ccc(C2CC(=O)N(Cc3ccc(F)cc3)c3ccccc3S2)cc1 (stereo not drawn)	26.2%
Cc1cccc(-c2nc3c4ccccc4n(CC(=O)Nc4cccc(F)c4)c(=O)n3n2)c1	3.3%

Next compounds follow.
SMILES	miR-21 reporter
COc1ccc(C2CC(=O)c3c([nH]c(C(=O)OC4CCC(C)CC4)c3C)C2)cc1OC (stereo not drawn)	-1.5%
O=C(Nc1nnc(S(=O)(=O)N2CCN(c3ccc(F)cc3)CC2)s1)c1ccc(Cl)cc1	-7.2%
CN1C(C(=O)NC(C)(C)C)=CC(c2ccc3c(c2)OCO3)=NS1(=O)=O	-3.7%
COCCc1nn2c(=O)cc(COC(=O)c3ccc(Br)cc3)nc2s1	-0.4%

Not all compounds are listed; the hit share may differ from the screen's.
